Screening results deposited in PubChem by SRMLSC.
H5N1 antiviral: MDCK cell protection from H5N1 avian flu; inhibition, % at 50 µM; cytopathic effect, luminescence, 72 h; stronger effect = higher value; no value below 0 was filed and about half of the inactive calls have no number; reference of the scale not given here; AID 740; actives 0.07% (n = 96,000); in the data active = inhibition above about 25%
An asterisk follows results filed as active; i = inactive. The list is partial (hit frequency here may not be typical).

Compound | H5N1 antiviral
CCOc1ccc(N2C(=O)CC(SC(=NC)Nc3cccc(F)c3)C2=O)cc1 (stereo not drawn) | i
COc1ccc(Nc2nc(C)cc(=O)[nH]2)cc1 | i
CCCN1Cc2cccc(C(=O)NCc3ccccc3OC)c2C1=O | i
O=c1[nH]c2cc3c(cc2cc1C(c1nnnn1Cc1ccccc1)N1CCN2CCCC2C1)OCCO3 (stereo not drawn) | 1.2
O=C(/C=C/c1ccco1)NCC1CCCO1 (stereo not drawn) | 3.0
c1cnc2ccc(C(c3nnnn3C3CCCCC3)N3CCN4CCCC4C3)cc2c1 (stereo not drawn) | 0.6
Nc1nc(-c2cccc(Br)c2)cs1 | i
O=C(O)CCCC(=O)N1CCN(c2nc(-c3ccccc3)c3ccccc3n2)CC1 | 0.7
O=C1C(C=NC2CC2)=C(O)c2ccccc21 | 0.5
CCCCCn1c(CN(C)Cc2ccccc2)nc2c1c(=O)n(C)c(=O)n2C | 2.9
CCN(CC)c1ccc(C(NC(C)=O)NC(C)=O)cc1 | 0.1
CC(C)Cn1c(SCC(=O)NCc2ccc(Cl)cc2)nnc1-c1cccc(S(=O)(=O)N2CCOCC2)c1 | 2.2
CCc1ccc2c(COn3nnc4ccc(S(=O)(=O)N(C)C)cc43)cc(=O)oc2c1 | 1.1
CCOC(=O)C1=C(C)Nc2ncnn2C1c1c[nH]c2ccccc12 (stereo not drawn) | 0.4
CCOC(=O)N1CCC(NC2CCCCCCC2)CC1 | i
CCOC(=O)c1[nH]c2ccc(OC)cc2c1NC(=O)CCN1CCc2ccccc2C1 | i
Cc1ccc(NC(=O)CC2SCCNC2=O)cc1Cl (stereo not drawn) | 0.3
CC(C)CNC(=O)CSc1nnc(CN2CCCCCC2=O)n1-c1ccccn1 | 0.2
COc1ccc(OC)c(-c2csc(N(Cc3ccco3)C(=O)c3cccs3)n2)c1 | i
Cn1c(SCC(=O)NCc2cccs2)nnc1-c1cccs1 | 0.6
O=C(Nc1ccccc1)Nc1ccccc1C(=O)NCc1ccccc1 | i
O=C(CSc1ncnc2nc[nH]c12)NCCc1ccccc1 | 1.5
Cc1ccc(CNC(=O)CCNS(=O)(=O)c2ccc3c(c2)c(=O)n(C)c(=O)n3C)cc1 | 1.4
CN(C)C(=O)CSc1nnc([C@@H](N)Cc2ccccc2)o1 | i
CCCn1ncc(C(=O)O)c1C | 0.5
Cc1cc(C(=O)NC(C)c2ccncc2)no1 (stereo not drawn) | i
Cc1ccsc1/C=N/N1CCN(c2ccccc2)CC1 | i
CCn1c(=O)[nH]c2ccccc2c1=O | i
COc1ccc(N(CC(=O)NC2CCCC2)C(=O)CCC(=O)Nc2cc(C)on2)c(OC)c1 | 0.3
COC(=O)c1cc(OC)c(OC)cc1NC(=O)CCC1CCCC1 | 0.2
CCOC(=O)c1[nH]c2ccccc2c1N=C(C)N(CC)CC | i
O=c1[nH]c(=O)n(Cc2ccco2)c2c1C(C(F)(F)F)(C(F)(F)F)N=C(c1ccc(F)cc1)N2 | i
Cc1onc(-c2ccccc2Cl)c1-c1nc(-c2ccncc2)no1 | i
Cn1nnnc1SCc1cccc(CSc2nnnn2C)n1 | 0.7
COc1ccc(N2CCN(C(=O)CSc3nnc(Cn4nnc5ccccc54)n3C)CC2)cc1 | 3.1
O=C(Nc1ccc(Cc2ccncc2)cc1)c1ccc(S(=O)(=O)N2CCOCC2)cc1 | 3.6
O=C(Nc1cccc(Cl)c1)N1CCSc2cc(Cl)ccc21 | i
C=CCNC(=S)Nc1ccc2nc(C)c(C)nc2c1 | 1.3
Nc1ccc(Cl)cc1/C(=N/O)c1ccccc1 | i
O=C(O/N=C/c1cccc([N+](=O)[O-])c1)C1CC1 | i

Reformatted: results already given
O=C(CSc1ncnc2nc[nH]c12)NCCc1ccccc1
  H5N1 antiviral: 1.5

Cc1ccc(CNC(=O)CCNS(=O)(=O)c2ccc3c(c2)c(=O)n(C)c(=O)n3C)cc1
  H5N1 antiviral: 1.4

Continuation:
Compound | H5N1 antiviral
CCn1c(C)nc2cc(-c3nnc(-c4c(-c5ccccc5)noc4C)o3)ccc21 | 1.1
O=C(CSc1nnc(-c2ccc(Cl)cc2Cl)n1C1CCCCC1)N1CCCC1 | 0.5
Cc1ccc(C(=O)Nc2cc3c(oc2=O)CCCC3=O)cc1 | i
Cc1ccc(S(=O)(=O)N2c3ccccc3NC(=O)C2CC(=O)Nc2ccccc2)cc1 (stereo not drawn) | 0.2
Cn1nc(C(C)(C)C)cc1C(=O)Nc1nc2c(s1)C(=O)CC(C)(C)C2 | i
Cc1c(C(=O)O)oc2ccc(S(=O)(=O)N3CCCCC3C(=O)O)cc12 (stereo not drawn) | 0.8
CCOC(=O)c1[nH]c(C)c(C(=O)OCC(=O)N2CCc3ccccc32)c1C | 0.7
Cc1ccc(N(C(=O)C2CCC(=O)N2)C2(C(=O)NC3CCCCC3)CCCCC2)cc1 (stereo not drawn) | i
O=C(CCCOc1ccccc1)N1CCN(c2ccc(F)cc2)CC1 | 0.6
CCSC(C)CC1CC(=O)CC(=O)C1 (stereo not drawn) | i
CCOCc1nnc(NS(C)(=O)=O)s1 | 0.4
C/C(=N\NC(=O)c1c(Cl)c(C)nn1C)c1ccc(NC(=O)COc2ccc(Cl)cc2C)cc1 | 0.3
Clc1ccc(Cn2nnc(-c3ccc(N4CCOCC4)cc3)n2)cc1 | 0.3
CCOC(=O)c1ccc(N2C(=O)C3ON(c4ccccc4)C(c4ccco4)C3C2=O)cc1 (stereo not drawn) | 0.9
O=C(CCc1ccccc1)NCc1cccnc1 | i
COc1cc(S(=O)(=O)NCC2OCCc3ccccc32)ccc1-n1cnnn1 (stereo not drawn) | 1.8
COc1ccc(S(=O)(=O)C(C#N)c2nc3ccccc3nc2N2CCCC(C)C2)cc1 (stereo not drawn) | 1.1
O=C(Nc1ccccc1-c1ccccc1)c1ccco1 | 0.4
CCCCn1c(SCC(=O)OCC)nnc1-c1ccoc1C | 0.3
COc1ccc(Nc2nc(-c3sc(N)nc3C)cs2)cc1 | i
CN1CCC(N(C)C(=O)CCc2nc3ccccc3c(=O)[nH]2)CC1 | 1.1
O=C1N2CCCc3cccc(c32)C12Nc1ccccc1S2 (stereo not drawn) | i
COc1ccc(OC)c(NC(=O)CSc2nc(C)cs2)c1 | 0.1
COc1ccc(Nc2nnc(SCc3cc([N+](=O)[O-])cc4c3OCOC4)s2)cc1 | i
Cc1cc(C)cc(NC(=O)N2CCC(c3nc4ccccc4o3)CC2)c1 | i
CCOc1cc(C2Nc3ccccc3C(=O)N2c2ccccc2)ccc1O (stereo not drawn) | i
CCOC(=O)CSc1nc(C2CC2)cc(-c2ccc(F)cc2)c1C#N | 1.4
COc1ccccc1Oc1ccc(S(=O)(=O)NCc2ccccn2)cc1 | 0.9
CCOc1ccc(C(=O)N(Cc2ccc(OC)cc2)Cc2cc3cc(OC)ccc3[nH]c2=O)cc1 | i
Cn1c(SCC(=O)OC2CCCCC2)nnc1-c1ccc2c(c1)OCO2 | i
CCOC(=O)c1c(N2C(=O)Nc3cc(Cl)c(Cl)cc3N2O)sc2c1CCCCC2 | i
Cc1cc(NC(=O)CCC(=O)N(c2ccccc2)C(C(=O)NC2CCCC2)c2ccncc2)no1 (stereo not drawn) | i
Cc1ccc([N+](=O)[O-])c2cccnc12 | i
Cc1nn(C)cc1NC(=O)CCSc1nc(-c2ccco2)cc(C(F)(F)F)n1 | i
Cc1cccc(C)c1OCc1nnc2c3cnn(C)c3ncn12 | i
c1ccc2c(c1)CCN(Cc1nnnn1Cc1ccc3c(c1)OCO3)C2 | i
COc1cccc(NC2SC(=O)N(c3ccccc3)C2=O)c1 (stereo not drawn) | 0.2
CSc1nnc2c3ccccc3c3ccccc3c2n1 | 1.4
CCOc1ccccc1NC(=O)CSc1nnc(-c2ccccc2Cl)n1Cc1ccco1 | i
CN(C(=O)COc1cccc(Br)c1)C1CCS(=O)(=O)C1 (stereo not drawn) | i
CCOC(=O)C1=C(C)NC(=O)CC1c1ccccc1 (stereo not drawn) | i
CCCCOc1ncnc2c1[nH]c1ccccc12 | 3.6
Cc1cc(C(=O)NCCCN2CCN(c3cc(Cl)ccc3C)CC2)n(-c2ccccc2)n1 | i
O=C(Nc1ccc2c(c1)OCCO2)C1CCN(S(=O)(=O)c2ccc(Br)s2)CC1 | i
CCOC(=O)C1CCN(S(=O)(=O)c2ccc3[nH]c(=O)oc3c2)CC1 | 1.7
Cc1ccc(NC2=NCCCCC2)cc1C | 0.4
CCCCC(=O)Nc1nn(CCC)c2nc3ccccc3cc12 | i
CC(C)c1ccc(NC(=O)C(c2ccc3c(c2)OCO3)N2CCCCC2)cc1 (stereo not drawn) | i
COc1cc2c(cc1OC)C(=O)CCS2 | 1.3
COc1ccc2nc(NC(=O)c3ccoc3C)sc2c1 | i
Cc1ccc2c(c1)N(CCC(=O)NCc1cccs1)C(=O)C(C)O2 (stereo not drawn) | i
CCOc1cccc(-c2nnc(SCC(=O)Nc3cccc(OC)c3)n2N)c1 | i
O=c1cc2c(nn1Cc1ccc(Cl)cc1)-c1ccccc1CC2 | 0.1
O=C(CCNS(=O)(=O)c1cccs1)NCc1ccccc1 | 0.7
O=C(NCC1CCCO1)c1ccc2c(c1)C(=O)N(C1CCCCC1)C2=O (stereo not drawn) | 0.7
Oc1ccc2ccccc2c1CN1CCN(c2ccccc2F)CC1 | 1.3
O=C(c1cnn2c(C(F)(F)F)cc(-c3ccco3)nc12)N1CCCc2ccccc21 | 0.3
CCCCOC(=O)C1=C(C)Nc2ncnn2C1c1cc(OC)c(OC)cc1OC (stereo not drawn) | i
COCCNc1nc(=S)[nH]c2cc(OC)c(OC)cc12 | 1.5
CN(C)c1ccc(N/C=C/C(=O)C(C)(C)C)cc1 | i

Entries listed so far with a tert-butyl group, in the order listed:
Compound | H5N1 antiviral
Cn1nc(C(C)(C)C)cc1C(=O)Nc1nc2c(s1)C(=O)CC(C)(C)C2 | i
CN(C)c1ccc(N/C=C/C(=O)C(C)(C)C)cc1 | i

Next entries:
Compound | H5N1 antiviral
Cc1nc2ccccc2n1-c1nc(-c2ccco2)cc(C(F)(F)F)n1 | 0.9
O=C1CC(N2CCN(c3ccccc3Cl)CC2)C(=O)N1c1ccccc1 (stereo not drawn) | 1.6
COc1ccc2[nH]c(=O)c(CN(Cc3nnnn3Cc3ccccc3)CC3CCCO3)cc2c1 (stereo not drawn) | i
CC(=O)N(C)c1ccc(NC(=O)/C=C/c2ccccc2Cl)cc1 | i
CS(=O)(=O)N1CCc2cc(C(=O)OCC(=O)c3ccccc3)ccc21 | 0.6
C=CCn1c(Cc2cccs2)nnc1SCC(=O)NCc1ccco1 | 0.4
N#CCCN1CCN(CCC#N)CC1 | 0.1
NC(=O)CCn1nc(-c2ccccc2)c2ccccc2c1=O | i
Cc1cccc(OCC(=O)Nc2cccc3nsnc23)c1 | i
CCOC(=O)N1CCN(c2c(NCCCN(CC)CC)c(=O)c2=O)CC1 | i
N#Cc1c(C(F)(F)F)cc(-c2ccccc2)nc1SCc1nc(N)nc(N2CCOCC2)n1 | i
COc1ccccc1Cn1c(=O)[nH]c2cccnc21 | i
O=C(NCc1ccc2c(c1)OCO2)C(c1ccco1)N(C(=O)c1csnn1)c1ccccc1 (stereo not drawn) | 0.3
Cc1ccccc1OCCNC(=O)CNC(=O)c1ccccc1O | 1.2
CCc1cc(/C(Cc2csc(C)n2)=N/O)c(O)cc1O | 1.1
CC(=O)N1CCc2cc(S(=O)(=O)NC(C(=O)NCc3ccccc3)C(C)C)ccc21 (stereo not drawn) | i
Cc1ccc(-c2nc3cnccn3c2Nc2ccc3c(c2)OCCO3)o1 | 1.8
C=CCn1c(SCC(=O)c2ccc(CNC(C)=O)o2)nc2scc(C3CC3)c2c1=O | 1.4
CN1CCC(=NNC(=O)C(=O)NC(C)(C)C)CC1 | i
O=C(OCC#CCSc1nnc(-c2ccncc2)o1)c1sc2ccccc2c1Cl | 0.1

Some of the entries so far, with each value named.
N#CCCN1CCN(CCC#N)CC1
  H5N1 antiviral = 0.1

NC(=O)CCn1nc(-c2ccccc2)c2ccccc2c1=O
  H5N1 antiviral = i

New compounds follow.
Compound | H5N1 antiviral
CC1=C([N+](=O)[O-])C(c2cccc(Br)c2)C2=C(N1)c1ccccc1C2=O (stereo not drawn) | i
CC(=O)C1=C(O)C(=O)N(CCCO)C1c1ccccc1 (stereo not drawn) | i
O=C(NCCN1CCN(Cc2ccccc2)CC1)C1c2ccccc2C(=O)N2CCc3ccccc3C12 (stereo not drawn) | i
CCOC(=O)C1CCN(C(=O)Nc2ccc(Cl)cc2)CC1 | 0.3
Cc1ccc2c(c1)N(CC(=O)N1CCCc3ccccc31)C(=O)CO2 | 3.0
CCOC(=O)c1c(N2C(=O)C3C4C=CC(O4)C3C2=O)sc2c1CCCC2 (stereo not drawn) | i
Fc1ccc(COc2ccc(Br)cc2CNCc2ccncc2)cc1 | 3.4
CCc1cc2c(=O)n(-c3ccccc3)cnc2s1 | 21.2
COc1cccc(C2c3c(-c4ccccc4)n[nH]c3C(=O)N2c2ccc(C(=O)O)cc2)c1 (stereo not drawn) | 1.1
COCCOC(=O)c1c(C)nc(SCC(=O)Nc2cccc3ccccc23)c(C#N)c1-c1ccco1 | 0.2
O=C1CCCN1CCCn1cnc2c([nH]c3ccc(F)cc32)c1=O | i
COC(=O)c1ccc(CSc2nc3ccccc3o2)cc1 | i
COc1ccc(-n2nnnc2SCC(=O)Nc2ccc3c(c2)OCCO3)c(OC)c1 | i
Cc1cccc(OCCn2nc(C(=O)O)c3ccccc3c2=O)c1 | 0.4
COC(=O)c1sc(N)c(C(=O)OC)c1CSc1nnnn1C | i

Reprinted at random: 3 records from the list, in no set order.
Compound | H5N1 antiviral
Cc1cc(C)cc(NC(=O)N2CCC(c3nc4ccccc4o3)CC2)c1 | i
O=C(CSc1ncnc2nc[nH]c12)NCCc1ccccc1 | 1.5
C=CCn1c(SCC(=O)c2ccc(CNC(C)=O)o2)nc2scc(C3CC3)c2c1=O | 1.4
